High-throughput results: PubChem BioAssay, several laboratories
T cruzi repl: T. cruzi replication inhibition. T. cruzi beta-gal in NIH3T3, luminescence, 90 h. inhibition, % (test concentration not listed). 300,000 tested, 1.4% active;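 active means mean inhibition across valid replicates above about 55%, limit read from the data; inconclusive means mean below that limit but half or more replicates reach it; inactive means mean below it, under half of replicates reach it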;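 further: signal also drops with host cell toxicity which is not excluded here; 0% = plate median of DMSO wells and 100% = zero luminescence signal; higher percent means less beta-gal luminescence so fewer parasites; stock transfer was 50 nL into about 50 µL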
Ecoli rRNA inh: inhibits bacterial ribosomal RNA function over humanized ribosomes. E. coli WT GFP vs humanized-ribosome RFP mutants, fluorescence, 24 h; hits give low values; DMSO median 0, no signal -100. GFP signal change (wild-type ribosome), % (concentration not given with the values). 350,000 tested, 1.6% active. AID 720706;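 active means significant combined selectivity score with lowered wild-type GFP, culture density cut under 30%, mutant RFP and density less affected; inactive means any of these conditions unmet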; further: one replicate is shown; some compounds called inactive have numbers as strong as hits
A1 inh: inhibitors of the anti-apoptotic protein A1, read as caspase activation | MEF A1-2A-BIM cells, Caspase-Glo 3/7 luminescence, 3 h; percent of clofoctol response, vehicle zero | caspase activation, % (concentration not given with the values) | 330,000 tested, 0.066% active | AID 2462;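 active means over half of replicate activation scores above 10%, or exactly half above 10 with the replicate mean above 10; inconclusive means replicate mean below 10 yet half the replicates above 10; inactive means over half of replicates below 10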;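 further: wells of about 30 µL received 50 nL stock; many hits fall short of the cut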
LANA-H2B inh: blocks KSHV LANA binding to histone H2A/H2B. Q9QR71. cell-free LANA-H2A/H2B peptide, fluorescence polarization. inhibition, % (concentration not given with the values). 320,000 tested, 0.6% active; in the data active means inhibition mostly above about 10%, no sharp cut-off; inactive means mostly below about 6.7%;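 further: stock transfer was 7.5 nL into about 10 µL; 0% = median of vehicle wells and 100% = median of positive control wells; one replicate is shown; the record names a cut of 25% in any replicate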
B2AR ag: agonists of human beta-2 adrenergic receptor inducing internalization | P07550 | response, % (test concentration not listed) | Am2.2-beta2AR cells, FAP receptor internalization, flow cytometry; reference of the scale not given here | 340,000 tested, 0.43% active;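 active means response above a set limit, near 3 SD of response in nonfluorescent compounds, cut at about 42% in these data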;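 further: stock transfer was 100 nL into about 11 µL; a reference agonist was the positive control; negative values mostly stem from fluorescent compounds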
Target sequence (P07550 whole entry, looked up): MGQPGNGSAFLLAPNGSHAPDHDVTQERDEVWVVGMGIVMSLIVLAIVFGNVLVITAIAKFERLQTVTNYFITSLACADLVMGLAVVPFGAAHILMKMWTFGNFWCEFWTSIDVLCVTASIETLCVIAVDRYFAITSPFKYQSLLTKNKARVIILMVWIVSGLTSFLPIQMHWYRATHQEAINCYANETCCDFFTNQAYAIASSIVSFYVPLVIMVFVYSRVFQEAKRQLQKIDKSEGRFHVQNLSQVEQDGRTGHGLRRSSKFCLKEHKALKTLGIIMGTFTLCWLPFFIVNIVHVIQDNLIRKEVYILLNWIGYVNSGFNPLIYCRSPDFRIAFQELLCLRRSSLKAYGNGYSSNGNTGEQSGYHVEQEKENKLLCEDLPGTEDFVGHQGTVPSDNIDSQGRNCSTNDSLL
Beta apoptosis: beta cell apoptosis inhibition. INS-1E cytokine-induced death, ATP luminescence, 48 h; percent of positive-control rescue, neutral wells zero. protection from apoptosis, % (test concentration not listed). 300,000 tested, 0.8% active;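 active means all replicates at 75% or more, or half of them and the mean; inconclusive means half reach 75% but not the mean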;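 further: 0% = cytokine-treated negative control wells and 100% = positive control rescue; higher means more ATP so stronger rescue from cytokine killing; wells of about 40 µL received 100 nL stock; the first replicate is given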
Calb FLC: C. albicans growth modulation with fluconazole. C. albicans CaCi-2 (fluconazole-resistant clinical isolate) + fluconazole, Alamar Blue growth, 48 h. growth inhibition, % (concentration not given with the values). 300,000 tested, 0.57% active. AID 1979;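 active means most replicates above 75%; inconclusive means exactly half above 75%; inactive means most below 75%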;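 further: all wells also contain fluconazole at 8 µg/ml as a sub-toxic cotreatment; 0% = median of DMSO wells and 100% = median of geldanamycin control wells; wells of about 8 µL received 7.5 nL stock; the first replicate is given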
ALR H2O2 inh: human ALR oxidase inhibition via reduced H2O2; P55789; AID 485317; 290,000 tested, 3.8% active; inhibition, % (no concentration beside the values); purified ALR, DTT oxidation, H2O2 HRP-luminol luminescence;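 active means mean and each replicate at 75% or more; inconclusive means only one of the two met; inactive means neither met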;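 further: stock transfer was 7.5 nL into about 7.5 µL; 0% = neutral wells and 100% = wells with inactivated enzyme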
Target sequence (P55789 whole entry, looked up): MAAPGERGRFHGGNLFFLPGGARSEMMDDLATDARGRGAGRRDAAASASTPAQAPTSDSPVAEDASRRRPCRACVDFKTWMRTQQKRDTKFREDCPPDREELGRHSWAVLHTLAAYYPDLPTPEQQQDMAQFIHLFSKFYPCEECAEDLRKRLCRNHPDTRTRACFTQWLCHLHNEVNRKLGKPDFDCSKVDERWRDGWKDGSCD
Ecoli rRNA inh OD600: recorded beside Ecoli rRNA inh, whose call it bears; OD600 change, %; measured here: OD600 growth;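 optical density of the mix in the first replicate; 0 = DMSO median and -100 = no signal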
Ecoli rRNA inh RFP: recorded beside Ecoli rRNA inh, whose call it bears; RFP signal change, %; measured here: RFP humanized mutant strains;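 first replicate; 0 = DMSO median and -100 = no signal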
The depositor's hits bear a star; ? = inconclusive; / = no result given. This is a subset, so the mix of outcomes need not match the whole.

SMILES | T cruzi repl | Ecoli rRNA inh | Ecoli rRNA inh OD600 | Ecoli rRNA inh RFP | A1 inh | LANA-H2B inh | B2AR ag | Beta apoptosis | Calb FLC | ALR H2O2 inh
Cc1ccc(S(=O)(=O)n2ccc3c2CCCC3=O)cc1 | 3 | -10 | -20 | 5.9 | 0.0 | -1.7 | -1 | -1 | 2 | -81
O=[N+]([O-])c1cc(-c2nnc(Nc3ccccc3)c3ccccc23)ccc1N1CCOCC1 | 57* | -6 | -3 | 0.7 | -0.2 | -1.6 | 7 | 17 | 38 | -4
CCCc1[nH]n(-c2ccc(F)cc2)c(=O)c1C=Nc1cccc(F)c1 | 3 | / | / | / | 0.4 | -5.0 | -20 | 2 | -1 | -16
Cc1ccccc1NC(=O)Cc1nc(COC(=O)COc2cccc(C)c2C)cs1 | -9 | 17 | 3 | 8.0 | 0.3 | -4.9 | 1 | / | -9 | -1
CCN(CC)S(=O)(=O)c1ccc2c(c1)nc(CCC(=O)Nc1ccc(N3CCOCC3)cc1)n2C | 3 | -9 | 6 | -2.1 | -0.5 | -2.2 | 4 | -2 | 11 | /
Cc1cccc(Cn2cnc3c(N)c(C)c(C)cc32)c1 | 5 | -27 | -29 | -3.5 | 0.2 | -9.6 | 1 | -9 | 1 | 65
CCNC(=O)NC(=O)C(C)OC(=O)CCCSc1nc2ccccc2s1 (configuration not stated) | -7 | / | / | / | -2.3 | -2.1 | 2 | -3 | -6 | -13
O=C(CN(C(=O)CNS(=O)(=O)c1ccccc1)c1ccc2c(c1)OCCO2)NCc1ccco1 | -3 | / | / | / | 0.3 | 3.9 | -2 | -3 | 16 | /
CC1Cc2ccccc2N1C(=O)COC(=O)Cc1ccc(F)cc1 (configuration not stated) | 1 | -10 | -13 | -0.9 | 1.0 | 2.1 | 5 | -1 | -2 | -4
COc1ccc(C(=O)N2CCCC(c3ccccc3)=N2)cc1 | 8 | -15 | -20 | -4.7 | 0.8 | -0.3 | 4 | -3 | 8 | 31
Cn1c(S(=O)(=O)O)nc2ccccc21 | -1 | 8 | -2 | -5.0 | 0.1 | -9.9 | 1 | 3 | 19 | -13
NC(=O)c1ccccc1NC(=O)CCCc1ccccc1 | -12 | 8 | 5 | 2.1 | 0.0 | -1.0 | -9 | 4 | 5 | -3
CC(=O)/C(=N/Nc1ccc(C)cc1)Sc1nnc(CCc2ccccc2)n1-c1ccccc1 | 6 | 9 | 0 | 3.1 | 0.2 | -3.1 | -6 | 1 | 8 | -15
CC(O)[C@@H](C(=O)N1CCNCC1)n1cc(CCCCN)nn1 (some centres not stated) | -17 | 1 | 1 | 1.6 | 0.4 | 9.6 | 0 | 2 | -10 | -4
C(=N\Nc1ccccn1)/c1c[nH]c2ccccc12 | -1 | 2 | -6 | -0.2 | -1.7 | -5.6 | -10 | -24 | -2 | 99*
Cc1ccc(-c2cc(C(=O)Nc3ccccc3C(N)=O)c3ccccc3n2)o1 | -1 | 4 | 1 | -2.3 | -0.1 | -3.5 | 15 | 3 | 7 | -4
COc1cccc(NC(=O)C(OC(=O)/C=C/c2ccc3c(c2)OCO3)c2ccccc2)c1 (configuration not stated) | 0 | / | / | / | 0.8 | -5.2 | 4 | -13 | -41 | /
CCOc1cc2[nH]c(=O)n(CCCC(=O)NCc3ccc(OC)cc3)c(=O)c2cc1OCC | 2 | 10 | 11 | -2.9 | 0.6 | 1.1 | -7 | 0 | 20 | 0
CCc1ccc(NC(=O)Cn2nc(C(=O)O)c3ccccc3c2=O)cc1 | 13 | 9 | 18 | -1.1 | 0.7 | 3.9 | -8 | -7 | -9 | 2
CCc1noc(C)c1C(=O)OCC(=O)NC(=O)c1ccccc1OC | -1 | 11 | 11 | -1.9 | ? | 1.5 | 2 | -2 | 4 | -2
COc1ccc(S(=O)(=O)N2CCOC2CNC(=O)C(=O)NCCc2ccccc2)cc1C (configuration not stated) | -26 | 4 | -15 | -3.9 | -0.2 | 0.4 | -6 | 4 | 0 | /
O=C(O)c1cc(=O)n(Cc2ccccc2)c(=O)[nH]1 | -6 | 8 | 11 | 2.2 | 0.6 | 1.8 | -4 | 2 | 1 | -1
O=C(c1cccs1)c1c[nH]cc1-c1ccccc1 | 6 | -30* | -8.2* | -8.1* | 1.2 | -2.6 | 3 | / | -5 | 4
O=C(Cn1cc(C(=O)c2ccco2)c2ccccc21)NC1CCCCC1 | 12 | 3 | 5 | -0.2 | 0.1 | -12 | -6 | -4 | 30 | /
COc1ccc(C(=O)Oc2ccc3ccc(=O)oc3c2)cc1OC | -3 | 7 | 6 | 5.8 | 0.0 | 3.7 | 6 | 4 | 8 | 1
Cc1cc(=O)oc(C)c1C(=O)NCc1ccc(F)cc1 | -7 | / | / | / | -0.1 | -10 | 4 | -5 | -3 | -1
O=C(CCCC(=O)c1ccccc1)NCc1ccccc1 | 4 | 5 | 4 | -0.5 | 0.6 | -0.6 | -1 | -3 | -7 | 1
Cc1ccccc1C(=O)Nc1ccnn1C1CCN(Cc2cccnc2)CC1 | -10 | 14 | 20 | 2.1 | 0.4 | 1.5 | -6 | -8 | 0 | -1
O=C(c1ccccc1F)N(Cc1ccccc1)C1CCS(=O)(=O)C1 (configuration not stated) | -8 | / | / | / | 1.2 | -2.3 | 0 | -15 | 1 | -1
COC(=O)CSc1nnc(CNC(=O)c2ccc(OC)c(OC)c2)n1C | 11 | 3 | 3 | -3.7 | 1.1 | -0.5 | 11 | -4 | -13 | -2
CSc1cc(-c2ccc(Cl)cc2)c(C(=O)NC(C)C)s1 | 31 | / | / | / | 1.2 | -4.9 | -6 | 5 | -5 | -1
COC(=O)CC1(C(=O)OC)Oc2ccc(Br)cc2C(=O)N1c1cc(Cl)cc(Cl)c1 (configuration not stated) | 18 | 8 | 9 | 1.6 | 0.4 | -5.0 | 7 | 12 | 2 | /
NC(=O)c1cccnc1OCC(F)(F)F | -9 | 2 | 6 | -2.1 | -0.1 | 1.7 | 0 | 5 | -6 | -1
COc1cc(-c2nc3ccccn3c2/N=C/c2cccc(F)c2)ccc1O | -9 | 6 | 6 | 0.4 | -1.6 | 0.4 | -8 | 6 | 29 | 78*
Cn1c(Cc2cccs2)nnc1SCC(=O)Nc1ccc(C(N)=O)cc1 | -6 | 6 | 11 | -1.2 | -0.5 | -9.4 | -4 | -9 | -6 | 5
c1ccc(CCn2nnnc2C(c2cccnc2)N2CCOCC2)cc1 (configuration not stated) | -16 | 2 | 1 | -1.0 | 2.2 | 5.6 | -2 | 0 | -18 | -2
CCCN(CCC)C(=O)COc1cc(=O)n(CC)c2ccccc12 | 12 | -10 | -17 | -3.2 | -0.4 | -6.9 | -6 | -2 | -10 | -6
COc1ccc(-c2nnc(SCc3nnc(-c4ccccc4)o3)n2C)cc1OC | -4 | / | / | / | -1.2 | -0.7 | 0 | -1 | 24 | 2
CCNC(=O)C1CC(=O)N(Cc2ccc(F)cc2)C(=Nc2ccc(OC)cc2)S1 (configuration not stated) | 10 | 7 | 8 | -1.1 | 0.1 | -3.7 | -7 | 1 | -4 | -1
COC(C[C@@H](O)CC(=O)[C@@H](C)OCc1ccccc1)OC | -11 | 13 | 10 | 6.4 | / | / | 0 | / | 0 | /
O=C1CSc2ccccc2N1Cc1ccc(F)cc1 | -3 | -49 | -53 | -18 | -0.3 | 5.6 | 5 | 0 | -7 | -12
CSc1ncccc1C(=O)OCC(=O)NC(=O)NCCC(C)C | 14 | / | / | / | -0.8 | -2.6 | 1 | -5 | -16 | 0
Cc1cccc(Cn2c(C(=O)OC(C)C)cc3c2ccn3C)c1 | 18 | / | / | / | -2.0 | 3.5 | 0 | 6 | 24 | -5
COc1ccc(-c2cc(C(=O)Nc3ccccc3SC)no2)cc1 | -18 | / | / | / | -2.5 | -5.5 | 1 | 1 | -11 | -2
Cc1sc2ncnc(SCC(=O)NC(C)(C)C)c2c1C | -3 | -25 | -32 | -2.4 | -0.3 | -2.5 | -3 | 0 | -4 | -1
COCCNC(=S)N1CCN(C/C=C/c2ccccc2)CC1 | 1 | 19 | 17 | 2.3 | 0.0 | -1.3 | -1 | -3 | -16 | -1
CCOc1cc2c(cc1C=O)OC(C)C2 (configuration not stated) | -2 | 0 | 2 | -2.1 | 0.2 | -7.3 | -5 | -6 | -11 | -2
COC(=O)c1cc(CNC(=O)c2ccc(N3CCCC3)c([N+](=O)[O-])c2)ccc1OC | 3 | -4 | -6 | 4.5 | 0.7 | 2.0 | 5 | -1 | 0 | 2
Cc1cc(OCc2cc3c(cc2Cl)OCO3)c2c(C)cc(=O)oc2c1 | -7 | 10 | 15 | 1.9 | 0.3 | 2.4 | 24 | -10 | 0 | -6
O=C(C[C@H]1C/C=C\C[C@H](NC(=O)OCC2c3ccccc3-c3ccccc32)C(=O)OC[C@H](Cc2ccccc2)NC1=O)N[C@H](CO)Cc1ccccc1 | / | / | / | / | 0.1 | -0.3 | 7 | 17 | / | -4
CCC(C)(C)NC(=O)Cn1c(-c2ccc(C)cc2)noc1=O | 7 | 5 | 0 | -3.0 | -1.2 | 1.0 | -1 | 0 | 8 | -12
O=C(OCc1c(-c2ccccc2)ncc2ccccc12)N1CCOCC1 | / | -13 | -6 | -1.0 | -0.1 | -3.7 | -9 | 0 | / | 14
COc1ccc(/C=C/C(=O)NCCC(=O)N2CCCN(C)CC2)cc1 | -15 | 13 | 4 | 0.7 | 0.9 | -1.9 | -8 | -3 | 0 | -3
CCCCN1CC(COc2ccccc2)OC1=O (configuration not stated) | -12 | / | / | / | 0.5 | -1.2 | -8 | -9 | 2 | -1
COc1ccc(S(=O)(=O)N2CCN(C(=O)CN3C(=O)NC(C)(C)C3=O)CC2)cc1 | / | 8 | 16 | 1.3 | 0.5 | -5.6 | 4 | -2 | / | -2
